Compound activity (PubChem BioAssay)
HepG2 tox: qHTS for Inhibitors of TGF-b: Cytotox Counterscreen; HepG2 CAGA-GFP viability, ATP luminescence, 18 h; Potency, µM (doses to about 46.1 µM), for the others: at the highest dose activity change, negative = cytotoxicity, actives largely listed as cytotoxic; 0.76% of 410,000 active; AID 588856, 2011; also: some results filed as inactive show a strong effect at the top dose
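HepG2 CAGA-GFP cells (1000/well, DMEM with 1% FBS) received compound, then TGF-beta at 500 pg/mL final, and were incubated 18 hours at 37 degrees C. Viability was read by CellTiter-Glo luminescence. Media-only wells were set as complete cell-killing and DMSO as no toxicity.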
TGFb inhibitor: qHTS for Inhibitors of TGF-b. HepG2 CAGA-GFP TGF-b/SMAD3 reporter, GFP fluorescence, 18 h; TGF-beta stimulated, 500 pg/mL final. Potency, µM (doses to about 46.1 µM), for the others: at the top dose activity, negative = inhibition, actives largely listed as inhibitors. 1.2% of 410,000 active. AID 588855, 2011; also: % is scaled to controls: 0 for no effect and ±100 for the full control effect; nearly all actives have a fitted effect of over 65% in size
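HEPG2 CAGA-GFP cells (1000/well, DMEM with 1% FBS) were pre-incubated 2 h at 37 degrees C, given compound by pin tool, then stimulated with TGF-beta at 500 pg/mL final for 18 h before per-cell GFP fluorescence imaging.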
MCF10A rerep: A quantitative high throughput screen for small molecules that induce DNA re-replication in MCF 10a normal breast cells. MCF 10A DNA re-replication, Hoechst nuclear intensity, 48 h. Potency, µM (doses to about 46.1 µM), without a hit: at the top dose activity, positive = re-replication, actives largely listed as activators. 2.9% of 350,000 active. AID 624296, 2012; also: % of control where 0% means no effect; nearly all actives have a fitted effect of over 50% in size
Nrf2 ARE act: qHTS of Nrf2 Activators. AREc32 ARE-luciferase reporter (MCF7-derived line), luminescence, 24 h. 0.31% of 410,000 active. Potency, µM (titrated, usually from 46.1 µM), inactives show at the top dose activation, actives largely listed as activators; also: % of control where 0% means no effect; nearly all actives have a fitted effect of over 65% in size
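AREc32 cells carrying an ARE-driven firefly luciferase reporter were seeded at 1000 cells/well in OPTI-MEM with 5% FBS, then exposed to compound for 24 hr at 37 deg C. Luminescence was read with Steady-Glo after 30 min at RT.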
A549 tox: Nrf2 qHTS screen for inhibitors: counterscreen for cytotoxicity; A549 ARE-Fluc cells, CellTiter-Fluor viability, 18-24 h; Potency, µM (doses to about 46 µM), without a hit: top-dose activity change, negative = cytotoxicity, most hits filed as inhibitors; 0.16% of 390,000 active; also: % is scaled to controls: 0 for no effect and ±100 for the full control effect
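Cytotoxicity counterscreen: CellTiter-Fluor fluorescence was measured in A549 ARE_Fluc cells after 18-24 h of compound exposure in a concentration series. The subsequent BugLite luminescent read reports ARE-luciferase activity.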
* hit, by the source's call; ? = inconclusive; . = not tested or not shown; & = joins results of further samples; ! = not active in a repeat; [ ] = another dose, or the depositor's remark. Calls follow the shape of the dose curve; as a rule, active = well fitted curve in the direction sought with a large enough effect; inconclusive = small, poorly fitted or top-dose-only effect, or another doubt; inactive = no such curve, though single readings can be large; an effect the other way counts as inactive or inconclusive. Potency is read from the fitted curve at half-maximal effect.

#1 CC[C@]1(O)CC2CN(CCc3c([nH]c4ccccc34)[C@@](C(=O)OC)(c3cc4c(cc3OC)N(C=O)[C@H]3[C@@](O)(C(=O)OC)[C@H](OC(C)=O)[C@]5(CC)C=CCN6CC[C@]43[C@@H]65)C2)C1 (stereo partly specified)
#2 Clc1ccc2c(c1)C(N1CCNCC1)=Nc1ccccc1O2
#3 C#C[C@]1(O)CCC2C3CCC4=Cc5oncc5CC4(C)C3CCC21C (stereo partly specified)
#4 O=C(O)c1cccnc1
#5 Cc1cccc(C)c1NC(=O)CN1CCN(CCCC(c2ccc(F)cc2)c2ccc(F)cc2)CC1
#6 O=C(O[C@@H](C(=O)O)[C@@H](OC(=O)c1ccccc1)C(=O)O)c1ccccc1
#7 CC/C(=C(\c1ccccc1)c1ccc(OCCN(C)C)cc1)c1ccccc1
#8 CCN(CCCc1ccccc1)CCCc1ccccc1

| compound no. | 1 | 2 | 3 | 4 | 5 | 6 | 7 | 8 |
| --- | --- | --- | --- | --- | --- | --- | --- | --- |
| A549 tox | -12% | ? | -6% | -9% | ? | -5% | -18%&-15% | 2% |
| Nrf2 ARE act | -0.4% | -0.4% | 1.1% | -1.7% | 0.3% | 0.6% | 0.5%&4.4% | 2.6% |
| MCF10A rerep | 0.65µM* | -4% | ? | 3% | ? | ? | ? | 12% |
| HepG2 tox | -11% | 1% | -28% | -2% | 11µM* | 1% | -6%&-104% | -20% |
| TGFb inhibitor | ? | -5% | 2% | 4% | ? | 3% | ? | 7% |

#9 Nc1ccc(N=Nc2ccccc2)c(N)n1
#10 CC(NCCC(c1ccccc1)c1ccccc1)c1ccccc1 (stereo unspecified)
#11 Cc1cccc(NC(=O)c2nc(S(=O)(=O)Cc3ccccc3)ncc2Cl)c1
#12 CCN(CC)Cc1cc(Nc2ccnc3cc(Cl)ccc23)ccc1O
#13 CC(=O)c1ccc2c(c1)N(CCCN1CCC(CCO)CC1)c1ccccc1S2
#14 CCCCc1oc2ccccc2c1C(=O)c1cc(I)c(OCCN(CC)CC)c(I)c1
#15 OC[C@H]1O[C@H](OCCc2ccc(O)cc2)[C@H](O)[C@@H](O)[C@@H]1O
#16 O=c1oc2cc(O)ccc2c2oc3cc(O)ccc3c12

| compound no. | 9 | 10 | 11 | 12 | 13 | 14 | 15 | 16 |
| --- | --- | --- | --- | --- | --- | --- | --- | --- |
| A549 tox | -7% | -5% | -17% | ? | -2% | -4% | -2% | -12% |
| Nrf2 ARE act | 7.3% | 0.1% | ? | 4.4%&0.3% | 5.2% | -1.3% | 0.1% | 5.9% |
| MCF10A rerep | 5%&-10%&-22% | ? | ? | ? | -38%[inhibitor] | 9.2µM*! | -35%[inhibitor] | ? |
| HepG2 tox | -9% | -95% | 11µM* | -26%&1% | -29% | -35% | 2% | -3%&-11% |
| TGFb inhibitor | 61%[activator] | ? | 4µM* | -9%&1% | 17% | 21% | -16% | 5%&-23% |

#17 O=C1/C(=C\c2cccnc2)CN(Cc2ccccc2)C/C1=C\c1cccnc1
#18 CCN(CC)CCOc1ccc(/C(=C(\Cl)c2ccccc2)c2ccccc2)cc1
#19 Cn1cc[nH]c1=S
#20 O=C1NS(=O)(=O)c2ccccc21

| compound no. | 17 | 18 | 19 | 20 |
| --- | --- | --- | --- | --- |
| A549 tox | 3% | -22% | -8%&8% | 9% |
| Nrf2 ARE act | 9.8% | 7.6% | -1.7% | . |
| MCF10A rerep | ? | 5.2µM* | 2% | 11% |
| HepG2 tox | -44% | -103% | -11%&4% | . |
| TGFb inhibitor | -5% | ? | -4%&10% | . |

A portion of the library; the hit share may differ from the screen's.
